HCMV UL50-53 inh: cytomegalovirus nuclear egress complex inhibition | HTRF UL50-UL53 interaction, normalized percent inhibition | 0.15% of 190,000 active | inhibition, % (test concentration not listed) | AID 1918969;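 active = both replicates at 50% or more, plus weaker picks with an unusually low signal ratio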;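 note: stock transfer was 100 nL into about 20 µL; 0% = negative control wells and 100% = wells with untagged competitor protein; inactives centre near -12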
The depositor's hits bear a star; & = joins results of further samples. An excerpt; rates above refer to the full screens.

A first look, three compounds:
SMILES	HCMV UL50-53 inh
OC[C@H]1NC[C@@H](O)[C@@H](O)[C@@H]1O	-3.0&1.4
OCc1nc2ccccc2n1CCc1ccccc1	-19.4
O=C(NCc1ccc(Cl)c(Cl)c1)c1c[nH]c2ccccc12	2.0

Results (from the top)
SMILES	HCMV UL50-53 inh
OC[C@H]1NC[C@@H](O)[C@@H](O)[C@@H]1O	-3.0&1.4
OCc1nc2ccccc2n1CCc1ccccc1	-19.4
O=C(NCc1ccc(Cl)c(Cl)c1)c1c[nH]c2ccccc12	2.0
C1=CCOCc2cc(ccc2OCCN2CCCC2)Nc2nccc(n2)-c2cccc(c2)COC1	-4.7
CCC(=O)c1c[nH]c(C(=O)Nc2ccc(OC)cc2)c1	6.6
CCCc1n(CC(=O)C(C)(C)C)c2ccccc2[n+]1C	-17.3
O=S(=O)(/C=C/c1ccccc1)N1CCc2ccccc21	6.7
COc1ccc(N2CCN(C(=O)Nc3nc(C)ns3)CC2(C)C)cc1	-8.8
CCn1c(-c2cccc(Br)c2)nc2ccccc21	-9.8
C=CCn1c(C(C)NC(=O)C(C)(C)C)nc2ccccc21 (stereo not given)	-8.6
NC(=O)c1sc2nc3c(cc2c1N)CCCC3	-60.8
Cn1nc(C(C)(C)C)cc1NC(=O)Nc1ccc(Cl)cc1	-9.8
O=C(Nc1cccc(Cl)c1)c1cc(=O)c2ccccc2o1	-4.6
CCN1C(=O)/C(=C/N(C(C)=O)c2ccccc2)SC1=S	-22.8
O=C1N=c2ccccc2=C1c1sc(=S)n(-c2ccccc2)c1O	-13.7
CCCCn1c(CNC(=O)CC)nc2ccccc21	-17.4
Cc1ccccc1NC(=O)c1cccc(NC(=O)C(F)(F)F)c1	3.6
COC(=O)c1ccc(Oc2ccc(C(F)(F)F)cn2)cc1	-5.6
CC(C)N1C(=O)/C(=C/c2ccc(N(C)C)cc2)SC1=S	-2.4
CCc1nc2sc3c(c2c2nnc(C)n12)CCC3	-6.1
CCOc1ccc(-n2nnnc2-c2nc3ccccc3s2)cc1	-7.0
CCOC(=O)c1[nH]c(C)c(C(=O)N2CCCCCC2)c1C	-12.3
Cc1nc(NC(=O)N2CCCC(c3nc4ccccc4[nH]3)C2)nn1C (stereo not given)	-5.4
COc1ccc(Cl)cc1C(=O)Nc1nnc(-c2ccc(F)cc2)s1	5.7
CCCCCC(=O)CC[C@H]1C(=O)C[C@H](O)[C@@H]1C/C=C\CCCC(=O)O	-8.1&-8.1
SMILES	HCMV UL50-53 inh
O=C(Nc1cccc(-c2csc(Nc3ccc(Cl)cc3)n2)c1)c1ccccc1	-0.4
CC(C)C(C(=O)O)N1C(=O)/C(=C/c2ccccc2)SC1=S (stereo not given)	-71.9
Cc1cccc(OCC(O)CN2CC(C)OC(C)C2)c1 (stereo not given)	-12.6
CC(NCCC(c1ccccc1)c1ccccc1)c1ccccc1 (stereo not given)	-9.7
O=C(COc1cccc2c1CCN(Cc1ccccc1)C2=O)NCc1ccco1	-12.9
COc1cccc(OC)c1C(=O)Nc1ccccn1	-4.3
CCCCn1c(=O)c2[nH]c(C34CC5CC(CC3C5)C4)nc2n(CCCO)c1=O	-1.3
O=C1C2C3C=CC(C3)C2C(=O)N1c1nccs1 (stereo not given)	7.6
CCCCCC(=O)/C=C/[C@@H]1[C@@H](CCCCCCC(=O)O)[C@@H](O)C[C@H]1O	2.2&2.2
CCOc1ccc2c(c1)S/C(=C/c1ccccc1O)C2=O	-2.5
COc1c(C)c(C(=O)c2ccc(N)c(C(=O)O)c2)n2ccccc12	-86.4
Nc1nnc(Sc2ncc([N+](=O)[O-])s2)s1	-77.6
COC(=O)c1ccc(C(=O)Nc2ccc(-c3nc4ccccc4[nH]3)cc2)cc1	0.7
CCCCS(=O)(=O)CCC(=O)O	-12.8
CCSc1nnc(NC(=O)CSc2c[nH]c3ccccc23)s1	10.0
Oc1ccccc1C(Nc1nccs1)c1ccc2cccnc2c1O (stereo not given)	-2.2
COC(=O)/C=C/c1ccc2c(c1)OCO2	-16.9
CCCNC(=O)c1ccc2c(c1)ncn2-c1ccccc1OC	-7.2
CN(C)S(=O)(=O)c1cccc2c(S(=O)(=O)N(C)C)cccc12	3.9
C=CCn1c(=O)c2ccccc2c2ccccc2c1=O	1.5
N#Cc1cc(CN2CCC(Nc3ncnc4sc(Cl)cc34)CC2)ccc1F	-0.5
CCCCC(=O)NCc1ccc2[nH]c3c(c2c1)CCCC3	13.7
CCCCCCCC/C=C\CCCCCCCCOC[C@H](COP(=O)([O-])OCC[N+](C)(C)C)OC(C)=O	-23.9
CN1CCN(C(=O)CN2C(=O)S/C(=C\c3ccc(Cl)cc3)C2=O)CC1	-13.7
CC(=O)Nc1cccc(Oc2nc(C)nc3sc4c(c23)CCCC4)c1	-0.4

The last 2 records of the part before are carried over, then new ones follow.
SMILES	HCMV UL50-53 inh
CN1CCN(C(=O)CN2C(=O)S/C(=C\c3ccc(Cl)cc3)C2=O)CC1	-13.7
CC(=O)Nc1cccc(Oc2nc(C)nc3sc4c(c23)CCCC4)c1	-0.4
CC(C)c1nnc(NC(=O)COc2ccc(Cl)cc2)s1	-21.5
Cc1cccc2nc(CSc3nncn3-c3ccccc3)cn12	-7.0
CC(C)C(CO)Nc1nc(Nc2ccc(S(=O)(=O)O)c(N)c2)c2ncn(C(C)C)c2n1 (stereo not given)	-7.2
CC(=Cc1ccc(C(=O)O)cc1)c1ccc2c(c1)C(C)(C)CCC2(C)C	2.0
CN1CCN(C(=O)c2nc3ccc(Cl)cc3[nH]2)CC1	-1.5
O=C(O)C1(S(=O)(=O)c2ccccc2)CC1	0.8
O=C(O)/C=C/c1cc(Br)c(Br)c(Br)c1Br	-12.8
COc1ccc(/C=C/C(=O)Nc2ccc(S(=O)(=O)N3CCCC3)cc2)cc1	-10.6
CCN(CC)c1ccc(O)c(C=Nc2ccc(S(N)(=O)=O)cc2)c1	-27.3
O=C1NCC(NC(=O)C(F)(F)F)c2cc3c(cc21)OCO3 (stereo not given)	-1.6
O=C(CCN1CCCC1)Nc1ccc2c(c1)OCO2	7.6&-16.6
CC(=O)Nc1c(-c2ccccc2)c2cc(Br)ccc2[nH]c1=O	-14.0
CC(NC(=O)Cc1ccc(F)cc1)C(c1cccs1)N1CCN(C)CC1 (stereo not given)	-15.9
CCn1cc(SCC(=O)N2CCc3ccccc32)c2ccccc21	-6.5
CCCCCCCCCCCCCCCCCCCCCCCCCCCCCCO	10.1&10.1
CCN1CCN(Cc2ccc(NC(=O)c3cc(NC(=O)C4=NN(c5ccccc5)C(=O)C4)cc(OC)c3)cc2C(F)(F)F)CC1	-8.3
Cc1ccc(C)n1C(CC(=O)O)C1CCCCC1 (stereo not given)	31.1
[O-]/[N+](=C\c1ccncc1)c1ccc(Cl)cc1	4.1
COc1ccc(-c2ncc3ccccn23)cc1OC	-65.8
O=S(=O)(O)CCN1CCOCC1	-11.4
NNC(=O)c1cccc(C(F)(F)F)n1	-8.2
O=C(CSc1nc(-c2ccccc2)c(-c2ccccc2)o1)N1CCCC1	-12.7
Clc1ccccc1Sc1cnc2ccccc2n1	1.3
CCC(C)C(N)C1=NC(C(=O)N[C@@H](CC(C)C)C(=O)N[C@H](CCC(=O)O)C(=O)N[C@H](C(=O)N[C@H]2CCCCNC(=O)[C@H](CC(N)=O)NC(=O)[C@@H](CC(=O)O)NC(=O)[C@H](Cc3cnc[nH]3)NC(=O)[C@@H](Cc3ccccc3)NC(=O)[C@H]([C@@H](C)CC)NC(=O)[C@@H](CCCN)NC2=O)[C@@H](C)CC)CS1 (stereo not given in full)	-18.7
CCN1C(=O)/C(=C/c2ccccc2)SC1=S	-20.3
SMILES	HCMV UL50-53 inh
CCc1ccc(-c2cn3ccsc3n2)cc1	-0.4
CCOC(=O)c1[nH]c(C)c(C(=O)N2CCCCC2C)c1C (stereo not given)	-6.0
CCn1nc(C(C)C)cc1C(=O)N1CCC(n2cc(CC(C)C)nn2)CC1	-10.5
C#C[C@]1(O)CCC2C3C(C)CC4=C(CCC(=O)C4)C3CC[C@@]21C (stereo not given in full)	-27.3
COc1ccccc1CNC1CCc2c(c(C(=O)N3CCc4ccccc4C3)nn2C)C1 (stereo not given)	-3.1
O=C(CSc1nnc(-c2ccco2)o1)NC1CCCCC1	1.1
CCCC(=O)N1CC(=O)Nc2ccc(Br)cc2C1c1ccc(F)cc1 (stereo not given)	-8.2
O=c1oc2ccccc2cc1-c1nnc(Nc2cccc(C(F)(F)F)c2)s1	-11.0
CNC(=O)c1ccsc1NC(=O)c1ccccc1	-3.5
O=S(=O)(Nc1ccccc1Cl)c1ccccc1	-17.8
CCCCC/C=C\C/C=C\C/C=C\CCCC/C=C\CCC(=O)O	-25.4&-25.4
CC1=C(C(=O)Nc2ccccc2)C(c2ccccc2Cl)n2ncnc2N1 (stereo not given)	-20.5
CN1CCN(S(=O)(=O)c2ccc(N)cc2)CC1	-0.8
NC(=O)c1cccc(-c2cccc(OC(=O)NC3CCCCC3)c2)c1	6.0&-7.0&-7.0
CC(=O)Nc1ccc(S(=O)(=O)N2CCCC(C(F)(F)F)C2)cc1 (stereo not given)	-11.6
CC1(C)CC(O)CC(C)(C)N1CC(O)COCc1ccccc1 (stereo not given)	-1.5
OC1C[C@@H]2[C@@H](CC[C@@H](O)CCc3ccccc3)[C@H](O)C[C@@H]2O1 (stereo not given in full)	-15.6&-15.6
C=CCOc1ccc(/C(O)=C2/C(=O)C(=O)N(Cc3ccco3)C2c2ccccc2)cc1 (stereo not given)	-7.8
CC(CC12CC3CC(CC(C3)C1)C2)n1cnc2nccnc2c1=O (stereo not given)	-21.9
COc1ccc(C(=O)Nc2ccc(-n3nncc3-c3ccccc3)cc2)cc1	-2.9
COc1ccc(C(=O)CSc2nc(C)c(C(N)=O)c(C)c2C#N)cc1	-20.1
Cc1ccc(-c2cc(O)cc3sc(=O)oc23)cc1C	-2.3&-4.1
CC1COC2=C1C(=O)C(=O)c1c2ccc2c1CCCC2(C)C (stereo not given)	12.7
CC(C)N(CCCNC(=O)Nc1ccc(C(C)(C)C)cc1)CC1OC(n2cc(Br)c3c(N)ncnc32)C(O)C1O (stereo not given)	4.1
COc1cccc2cc(-c3csc(N)n3)c(=O)oc12	-55.1

Given with each value named: 2 of the compounds above.
CCc1ccc(-c2cn3ccsc3n2)cc1
  HCMV UL50-53 inh = -0.4

CCOC(=O)c1[nH]c(C)c(C(=O)N2CCCCC2C)c1C (stereo not given)
  HCMV UL50-53 inh = -6.0

Next compounds:
SMILES	HCMV UL50-53 inh
CCOC(=O)c1c(C)n(C)c2ccc(OC(=O)c3ccc(OC)cc3)cc12	-0.3
O=C(c1ccc(-n2ccnc2)cc1)N1CCc2[nH]nc(-c3ccccc3)c2C1	-10.4
CCN1CCN(Cc2ccc(NC(=O)c3ccc(C)c(C=Cc4cnc(Nc5cc(N6CCNCC6)nc(C)n5)cn4)c3)cc2C(F)(F)F)CC1	5.1
CCOc1cc(/C=C2\SC(=S)N(c3ccccc3)C2=O)ccc1O	4.2
CC(C)(C)C(=O)NCCc1nc2ccccc2n1Cc1ccccc1F	-19.4
Cc1ccc2c(C(=O)N3CCC(C)(C)C3)cc(-c3cnn(C(C)C)c3)nc2c1	-45.3
CC1=N/C(=C\c2sccc2C)C(=O)O1	-39.1
COCCn1c(=NC(C)=O)sc2cc(S(C)(=O)=O)ccc21	2.9
O=C(/C=C/c1ccccc1)NC1CCS(=O)(=O)C1 (stereo not given)	-12.6
CCCCc1ncc(CN2CCc3c(cc(-c4ccncc4)c(=O)n3C/C=C/c3ccccc3)C2)[nH]1	-41.2
COc1ccc(-c2nc3cc(F)ccc3s2)cc1OC	-11.6&-11.6
COc1ccc(S(=O)(=O)Nc2cccnc2)c2ccccc12	-7.1
CCOCN(C(=O)Cn1cnc2ccccc21)c1c(C)cccc1CC	-9.7
O=C(CSc1nnc(Cc2ccccc2)o1)NC1CCCCC1	-1.3
COc1ccc(-c2nc(C(=O)N3CCN(C)CC3)sc2-c2ccc(OC)cc2)cc1	-40.5&5.1&5.1
CCOc1ccc(C(=O)CSc2nc3ccccc3s2)cc1	-19.0
CCN(CC)c1ccc(/C=N/NC(=O)c2ccc(O)cc2)cc1	-21.2
Cc1ccc(-c2nnnn2CS(=O)(=O)c2ccccc2)cc1	-9.6
Nc1nc(SCC(=O)N2CCCCC2)nc2sc3c(c12)CCCC3	-2.9
Cc1cc2nccc(C(C)Oc3ccc(Cl)cc3Cl)n2n1 (stereo not given)	-6.1
O=C(Nc1ccccc1)c1ccc(Br)s1	-14.4
CN(C)C(=O)n1nnnc1Cc1ccc(-c2ccccc2)cc1	2.7
CCCNc1ncnc2nc[nH]c12	10.6
COc1cc(-c2cc(-c3cccc(O)c3)cnc2N)cc(OC)c1OC	-0.9
Cc1cc(=O)[nH]c(SCC(=O)Nc2ccccc2C)n1	-10.0
SMILES	HCMV UL50-53 inh
O=c1[nH]c(-c2cccc(Cl)c2)nc2ccc(N3CCCC3)cc12	6.1
Fc1ccccc1-c1cn2ccsc2n1	-0.9
CC(=O)Oc1ccc2c(=O)c(-c3nc4ccccc4s3)c(C)oc2c1	-21.2
Cc1ccc(/C=C2/SC(=O)N(CCC(=O)O)C2=O)cc1	-56.6
CC(C)n1cc(-c2cc(C(=O)N(C)Cc3ccncc3)c3cc(F)ccc3n2)cn1	-27.4&-27.4
COC(=O)C1=C(NC(=O)C(C)(C)C)CCS1	-0.5&-28.5
COc1ccc(C(=O)Nc2nc3c(OC)cccc3s2)cc1OC	-24.9
Fc1cccc(NCc2cn3cccnc3n2)c1	-12.1

Six entries drawn at random from those above, as already listed:
SMILES	HCMV UL50-53 inh
CC(=O)Nc1cccc(Oc2nc(C)nc3sc4c(c23)CCCC4)c1	-0.4
Cc1ccc2c(C(=O)N3CCC(C)(C)C3)cc(-c3cnn(C(C)C)c3)nc2c1	-45.3
Cc1ccc(/C=C2/SC(=O)N(CCC(=O)O)C2=O)cc1	-56.6
CCOC(=O)c1c(C)n(C)c2ccc(OC(=O)c3ccc(OC)cc3)cc12	-0.3
CC(NC(=O)Cc1ccc(F)cc1)C(c1cccs1)N1CCN(C)CC1 (stereo not given)	-15.9
CCC(=O)c1c[nH]c(C(=O)Nc2ccc(OC)cc2)c1	6.6
